# Screens deposited in PubChem BioAssay by National Center for Advancing Translational Sciences (NCATS).
# Cruzain Triton: qHTS Assay for Promiscuous and Specific Inhibitors of Cruzain (with detergent); Cruzipain (Trypanosoma cruzi), P25779; purified cruzain, Z-FR-AMC fluorescence, 0.01% Triton; Potency, µM, inactives show max response, negative = inhibition, most hits filed as inhibitors; hit rate 0.43% among 200,000; active means well fitted curve in the direction sought with a large enough effect; inconclusive means small, poorly fitted or top-dose-only effect, or another doubt; inactive means no such curve, though single readings can be large; an effect the other way counts as inactive or inconclusive;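 further: plate controls were neutral wells for no effect and buffer without enzyme for full effect; nearly all actives have a fitted effect of over 40% in size; top concentration of the series not given in the record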
# Target sequence (P25779 123-467 limits assumed): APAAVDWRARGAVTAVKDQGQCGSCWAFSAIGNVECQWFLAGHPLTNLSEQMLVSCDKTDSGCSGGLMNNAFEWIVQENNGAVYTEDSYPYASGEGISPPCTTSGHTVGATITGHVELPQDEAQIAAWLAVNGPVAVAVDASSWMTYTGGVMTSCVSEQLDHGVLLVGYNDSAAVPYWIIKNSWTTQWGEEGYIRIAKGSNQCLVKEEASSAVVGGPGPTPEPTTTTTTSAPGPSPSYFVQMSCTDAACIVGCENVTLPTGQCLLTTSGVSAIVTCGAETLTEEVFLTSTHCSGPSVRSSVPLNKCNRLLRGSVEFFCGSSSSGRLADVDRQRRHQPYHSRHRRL
#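 In this qHTS format, compounds are incubated with 1.5 nM cruzain for 15 min at room temperature before 2 uM Z-FR-AMC is added. Release of AMC is followed at 360/450 nm, and progress is taken as the 60 s fluorescence difference.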
# 2A StopGo: High Throughput Screening for Foot and Mouth Disease Virus Antivirals. AID 1159524, 2015. Potency, µM (titrated, usually from 57.9 µM), for inactives: at the highest dose signal change, negative = less light. human cells with a luciferase reporter of 2A StopGo recoding; control for the full effect not named in the record. hit rate 1.2% among 410,000; active = well fitted falling curve with a large enough effect; inconclusive = small, poorly fitted or top-dose-only effect; inactive = no such curve, though single readings can be large or run the other way; tested in HEK293T cells; further: on the % scale 0 is the no-effect control and ±100 the full control effect; nearly all actives have a fitted effect of over 45% in size; luciferase light after 4 h
# Cruzain inh noDet: qHTS Assay for Promiscuous and Specific Inhibitors of Cruzain (without detergent); Cruzipain (Trypanosoma cruzi), P25779; purified cruzain, Z-FR-AMC fluorescence, no detergent; Potency, µM, without a hit: max response, negative = inhibition, usual class: inhibitors; hit rate 2.3% among 200,000; active means well fitted curve in the direction sought with a large enough effect; inconclusive means small, poorly fitted or top-dose-only effect, or another doubt; inactive means no such curve, though single readings can be large; an effect the other way counts as inactive or inconclusive;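 further: plate controls were enzyme without inhibitor for no effect and buffer without enzyme for full effect; nearly all actives have a fitted effect of over 40% in size; top concentration of the series not given in the record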
#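 Purified cruzain at 1.5 nM, pre-incubated 15 min with compound at room temperature in 100 mM sodium acetate pH 5.5, 5 mM DTT, 0.00005% Triton X-100. Reaction started with 2 uM Z-FR-AMC; AMC fluorescence increase over 60 s gives rate.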
# NS1 inh: qHTS Assay for Inhibitors of Influenza NS1 Protein Function; Potency, µM (doses to about 46.1 µM), without a hit: at the top dose activity, positive = more growth; S. cerevisiae slowed by influenza A NS1, growth recovery by OD600; hit rate 0.4% among 270,000; further: actives are rising curves; nearly all actives have a fitted effect of over 50% in size
#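 In this qHTS, NS1 from influenza A is expressed in budding yeast, where it slows growth. Cells are switched from glucose to 2% galactose medium (pH 6.0, -URA), treated with compound, and growth recovery is read at OD600.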
# LASV entry inh: qHTS for Inhibitors of binding or entry into cells for Lassa Virus; Lassa virus pseudotype entry inhibition, cell reporter; control for the full effect not named in the record; Potency, µM (top dose mostly 37.9 µM), inactives show at the top dose activity change, negative = inhibition, usual class: inhibitors; hit rate 1.2% among 300,000; AID 540256, 2011; active means well fitted inhibition curve with a large enough effect; inconclusive means small, poorly fitted or top-dose-only effect, or effect the other way; inactive means flat fitted curve, though single readings scatter; tested in HEK293 cells; further: on the % scale 0 is the no-effect control and ±100 the full control effect; nearly all actives have a fitted effect of over 50% in size; luciferase read-out
# Marburg entry inh: qHTS for inhibitors of binding or entry into cells for Marburg Virus. Marburg virus pseudotyped entry inhibition, cell reporter; control for the full effect not named in the record; about a third of the inactives were read at about 46 µM. Potency, µM (titrated, usually from 37.8 µM), for inactives: at the top dose activity change, negative = inhibition, usual class: inhibitors. hit rate 1.8% among 300,000; active = well fitted inhibition curve with a large enough effect; inconclusive = small, poorly fitted or top-dose-only effect, or effect the other way; inactive = flat fitted curve, though single readings scatter; tested in HEK293 cells; about a fifth of its hits are not listed in these tables; further: on the % scale 0 is the no-effect control and ±100 the full control effect; luciferase read-out
# RE007 growth inh: qHTS Assay for Inhibitors of the HIV-1 protein Vpr; S. pombe RE007 Vpr strain, BacTiter-Glo ATP luminescence, 24 h; control for the full effect not named in the record; Potency, µM (top dose mostly 92.2 µM), inactives show top-dose activity change, negative = less growth; hit rate 0.21% among 360,000; AID 651644, 2012; active = well fitted falling curve with a large enough effect; inconclusive = small, poorly fitted or top-dose-only effect; inactive = no such curve, though single readings can be large or run the other way;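 further: on the % scale 0 is the no-effect control and ±100 the full control effect; nearly all actives have a fitted effect of over 50% in size; the assay follows cell death caused by Vpr and the record does not say whether a fall means rescue or toxicity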
#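 Fission yeast strain RE007, carrying one chromosomally integrated HIV-1 vpr copy, was seeded at OD 0.01 in PMG+AL medium with 23 nL pinned compound. After 24 h at 30 °C and 99% humidity, viability was read by BacTiter-Glo luminescence.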
# SARS PLpro yeast: qHTS of Yeast-based Assay for SARS-CoV PLP; S. cerevisiae expressing SARS-CoV PLpro, growth rescue; control for the full effect not named in the record; hit rate 0.19% among 330,000; Potency, µM (titrated, usually from 32.9 µM), inactives show at the highest dose activity, positive = growth rescue; further: 0% is about no effect; nearly all actives have a fitted effect of over 55% in size; growth read by luminescence after 48 h
# Numbers without * were called inactive; ? = inconclusive; . = no result given; & = joins results of further samples; [ ] = dose if it differs, or a comment. Unless noted, the call rests on the fitted dose curve; in most records, active means well fitted rising curve with a large enough effect; inconclusive means small, poorly fitted or top-dose-only effect; inactive means no such curve, though single readings can be large or run the other way. Potency means the concentration at half of the fitted maximal effect. Compounds were not picked by outcome; about 4.6% have a hit in one of these screens.
SMILES,Cruzain Triton,2A StopGo,Cruzain inh noDet,NS1 inh,LASV entry inh,Marburg entry inh,RE007 growth inh,SARS PLpro yeast
Cc1ccc(S(=O)(=O)N/N=C/c2c[nH]c3ccccc23)cc1,.,8.5%,.,6.1%,.,.,6.6%,-0.3%
COc1ccc(/C(C)=N/NC(=O)CNC(=O)c2cccnc2)c(OC)c1,.,-9.4%,.,3.0%,.,.,-13.9%,0.5%
O=c1[nH]nc(Cc2ccc(Cl)cc2Cl)c2ccccc12,-8.3%,?,3.0%,-6.1%,-18.3%,?,7.0%,15.5%
C[C@]12CC[C@H](O)CC1=CCC1C2CC[C@@]2(C)C1CC[C@@H]2NC(=O)[C@@H](N)Cc1ccccc1 (stereo not given in full),.,-15.8%,.,.,?,?,2.0%,-7.1%
C[C@@H]1CN(Cc2nc(-c3cccs3)no2)C[C@H](C)O1,.,9.8%,.,-0.2%,.,.,-3.9%,1.6%
Cc1ccc(N2CC(C(=O)NCCC3=CCCCC3)CC2=O)cc1 (stereo not given),.,-10.4%,.,.,3.2%,12.3%,-3.8%,.
O=C1c2ccccc2C(=O)C1C(=O)C1CC1,.,-10.7%,.,.,12.7%[46.1 µM],2.9%[46.1 µM],-2.0%,.
N#CCCN(CCC#N)C(=O)c1ccc(Cl)cc1,4.3%,-4.4%,-1.4%,9.1%,-2.5%,9.1%,18.3%,0.3%
O=C(O)CCCCCN1C(=O)/C(=C/c2ccncc2)SC1=S,-5.2%,-24.5%,24.3%,-47.9%,0.0%,?,?,-8.8%
Cc1cc(=O)oc2cc(OCC(=O)NC3(C#N)CCCCC3)c(Cl)cc12,.,-10.9%,.,.,-23.9%,-18.4%[46.1 µM],5.9%,-5.1%
COc1cc(NC(=O)CSCc2cnn(-c3ccccc3)c2-n2cccc2)cc(OC)c1,-10.1%,?,9.1%,-48.1%,?,?,-17.7%,-5.8%
CN1CCN(c2nc(-c3cccc([N+](=O)[O-])c3)nc3ccccc23)CC1,.,-15.0%,.,-4.9%,?,?,-8.4%,-0.9%
CCCN1C(=O)c2cc(C(=O)NCc3cccs3)ccc2C1O (stereo not given),1.1%,.,-5.8%,2.8%,.,0.8%,.,6.8%
CCN(Cc1ccncc1)Cc1nc(-c2ccc(C(=O)OC)cc2)no1,.,-20.5%,.,3.1%,-14.2%,?,-20.5%,0.5%
CCOP(=O)(C(NC(=O)c1ccccc1Cl)=C(Cl)Cl)c1ccccc1 (stereo not given),3.1%,-0.5%,7.4%,-5.3%,9.3%,18.4%,-7.5%,-2.4%
Cc1csc2c(N3CCN(C(=S)Nc4ccc(F)cc4F)CC3)ncnc12,.,?,.,-2.4%,-28.4%,?,9.5%,0.3%
CCOC(=O)C1CCCN(CCC(=O)Nc2cc(C)ccc2C)C1 (stereo not given),.,-9.2%,.,3.3%,.,.,-21.8%,-0.5%
COc1ccc2c(c1)c(-c1csc(N)n1)c(C)n2C,.,-1.3%,.,25.5%,.,.,2.3%,2.6%
COc1ccc(NS(=O)(=O)c2cc(C(=O)Nc3ccccc3C(=O)O)ccc2C)cc1,.,67.2%[activator],.,5.4%,.,.,24.3%,3.9%
CNC(=S)NNC(=O)c1cccs1,.,9.9%,.,-0.4%,14.8%,6.5%[46.1 µM],1.5%,1.4%
Cc1cccc(C)c1NC(=O)COc1ccc2c(C)c(Cc3ccccc3)c(=O)oc2c1C,-4.5%,-14.6%,12.6µM*,-2.8%,-12.5%,?,-9.5%,-12.0%
COc1cccc(NC(=O)N2CCCC2C(=O)Nc2cc(C)ccc2OC)c1 (stereo not given),.,-1.6%,.,-3.6%,.,0.3%[46.1 µM],0.4%,0.5%
CN(C(=O)CN1C(=O)NC2(CCc3ccccc32)C1=O)C1CCCCC1 (stereo not given),.,-4.7%,.,.,20.9%,6.0%,-1.1%,22.4%
N/N=C(\Cc1cscn1)c1ccc(O)cc1O,.,8.1%,.,6.5%,9.9%,14.7%,2.8%,0.6%
Cn1c(SCc2ccccc2Cl)nc2c1c(=O)[nH]c(=O)n2C,.,-5.8%,.,-5.1%,?,19.7%[46.1 µM],4.0%,0.6%

# Continued:
SMILES,Cruzain Triton,2A StopGo,Cruzain inh noDet,NS1 inh,LASV entry inh,Marburg entry inh,RE007 growth inh,SARS PLpro yeast
COc1ccccc1C(C)NC(=O)c1ccc(C)o1 (stereo not given),6.8%,-25.3%,12.1%,0.3%,-8.9%,?,23.0%,0.2%
O=C(Nc1ccccc1Cl)Nc1ccnn1C1CCN(C(=O)CCN2CCCO2)CC1,.,-10.4%,.,-2.4%,.,.,2.3%,0.2%
Cc1cc(C)n2nc(C(=O)OCC(=O)c3ccccc3Cl)nc2n1,.,9.6%,.,.,0.7%,7.2%,-0.8%,-1.1%
O=P(COCCOCCOCP(=O)(c1ccccc1)c1ccccc1)(c1ccccc1)c1ccccc1,.,-3.4%,.,-0.5%,27.8%[46.1 µM],?,-18.9%,0.3%
O=C(Nc1cccnc1)c1cnn2cccnc12,-0.6%,.,-4.3%,-5.8%,6.2%,14.8%,-26.9%,-2.0%
O=C1CC(N(CCc2ccccc2)C(=S)Nc2ccccc2)C(=O)N1c1ccc(F)cc1 (stereo not given),.,10.2%,.,7.0%,.,.,-4.9%,-2.2%
CC(CCc1ccco1)NC(=O)Cn1ncc2c(=O)oc3ccccc3c21 (stereo not given),-2.5%,-21.2%,-7.3%,?,.,.,-2.5%,19.1%
Cc1nn(Cc2ccc([N+](=O)[O-])cc2)c(=O)n1-c1cccc(Cl)c1,.,-14.4%,.,-0.8%,9.3%,-1.3%[46.1 µM],11.9%,2.1%
COc1ccc(NC(=S)NC2CC3CCC2C3)c(OC)c1 (stereo not given),.,14.3%,.,-9.0%,?,23.5%[46.1 µM],3.5%,1.1%
COc1ccc(-n2c(=O)c3c(c4cc(OC)ccc4n3C)n(C)c2=O)cc1,0.4%,-0.6%,5.1%,.,18.5%[46.1 µM],.,.,.
CC(C)=C1C2CC2C2C(C(=O)O)C12 (stereo not given),3.4%,-13.0%,-5.0%,-6.8%,29.7%,11.3%,-24.8%,4.5%
O=C(Nc1nnc(S(=O)(=O)N2CCc3ccccc32)s1)c1ccccc1Cl,-0.7%,-17.2%,-6.5%,.,5.9%[46.1 µM],.,.,.
CSc1cccc(N2C(=O)N(CC(=O)NCc3ccccc3Cl)c3ccccc3S2(=O)=O)c1,1.1%,-8.6%,-15.9%,.,-20.7%[46.1 µM],.,.,.
Cc1sc2nc(SCC(=O)NCCOCCO)n(C)c(=O)c2c1C,-2.9%,7.5%,-18.3%,10.4%,-19.1%,17.2%,10.6%,-0.9%
CC(C)CN(CCNC(=O)CN1N=C(c2ccc(Cl)cc2)CCC1=O)CC(C)C,.,-17.8%,.,4.7%,.,.,-12.1%,1.2%
CC12CCC3C(CC=C4CC5(CCC43C)OCCO5)C1CCC2=O (stereo not given),.,-19.1%,.,-2.1%,2.1%[46.1 µM],5.9%[46.1 µM],-1.6%,-2.8%
CCOc1ccc(CCNC(=O)c2cccc(C#N)c2)cc1OCC,.,?,.,.,.,-27.0%[46.1 µM],23.4%,1.5%
CCN(Cc1cc(=O)[nH]c2ccccc12)C(=O)C(C)C,.,-7.0%,.,2.7%,-12.8%,-11.1%,-6.9%,0.1%
CN(C)c1ccc(NC(=O)CN2C3CCCC2CC(NC(=O)c2ccccc2)C3)cc1 (stereo not given),.,?,.,-10.5%,-27.9%,?,28.1%,-0.2%
COc1ccccc1N1CCN(C2CCN(C(=O)c3cccc(F)c3)CC2)CC1,1.7%,-22.6%,-1.4%,2.9%,-14.3%,11.7%,-7.7%,11.2%
Cc1ccc(C(=O)Nc2cccnc2)cc1[N+](=O)[O-],.,-0.1%,.,.,18.6%,16.1%,-10.5%,-3.0%
COC(=O)CCCC[C@H]1SC[C@H]2NC(=O)N[C@]21O,-0.5%,.,-10.4%,9.2%,.,-1.3%,.,3.9%
CCSc1nnc(NC(=O)NCC(F)(F)F)s1,1.3%,18.2%,-11.0%,-5.6%[9.22 µM],-22.5%,6.9%,5.9%,-0.1%
OC(CNCCNc1ncccc1C(F)(F)F)COc1ccc(F)cc1 (stereo not given),.,-18.3%,.,4.2%,?,?,-5.5%,2.1%
CC1=C(C(=O)Nc2ccc(C)cc2C)C(c2ccccc2[N+](=O)[O-])n2ncc(C(=O)Nc3ccccc3)c2N1 (stereo not given),-5.1%,18.5%,?,.,-0.1%[46.1 µM],.,.,.

# Continuation:
SMILES,Cruzain Triton,2A StopGo,Cruzain inh noDet,NS1 inh,LASV entry inh,Marburg entry inh,RE007 growth inh,SARS PLpro yeast
O=C1NCCN(Cc2c(F)cccc2Cl)C1CC(=O)N1CCCO1 (stereo not given),.,-6.6%,.,0.9%,-10.6%[46.1 µM],?,1.1%,-0.4%
COc1ccc(CN(C(=O)c2oc3ccc(F)cc3c2C)C2CCS(=O)(=O)C2)cc1 (stereo not given),.,?,.,-13.5%,3.8%,-5.8%,-0.9%,-3.6%
O=C(CP(=O)(CO)CO)c1ccc(Cl)cc1,8.2%,.,1.0%,-8.2%,-6.5%,8.0%,-5.6%,2.9%
COC(=O)[C@H]1C[C@@H]1[C@H](NS(=O)(=O)c1ccccc1)c1ccccc1,-1.3%&1.5%,-18.3%,-4.9%&3.2%,8.6%,3.3%,-3.5%,-11.1%,6.2%
Cc1cc2cc(C(c3nnnn3C3CCCC3)N(Cc3cccnc3)Cc3ccco3)c(=O)[nH]c2cc1C (stereo not given),-4.5%,?,2.4%,7.5%,?,4.11µM*,-18.5%,12.5%
Cc1ccc(CNC(=O)CCc2c(C)nc3c(-c4ccc(F)cc4)c(C)nn3c2C)cc1,1.8%,3.4%,8.4%,.,-5.8%[46.1 µM],2.6%[46.1 µM],.,.
COc1ccc(N2CCN(C(=O)Cc3csc(NC(=O)Nc4ccccc4OC)n3)CC2)cc1,.,?,.,.,?,?,11.7%,5.1%
